MT1-MMP act inh = MT1-MMP (human) activation inhibition; GFP/RFP ratio change, % at 20 µM; AID 651647; P50281; 0.061% of 360,000 active; HT1080 RFP-PRO-GFP cells, GFP/RFP ratio fluorescence, overnight; percent of plate control window, DMSO zero;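 active means GFP/RFP ratio change of at least 30% with cell ATP level not reduced by more than half and red fluorescence within 50% of control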; further: strong numbers were not always called active
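Material – HT1080 RFP-PRO-GFP cells · Control set – DMSO wells and RFP-L50D-GFP cells · Incubation – overnight cell settling, then overnight compound exposure, 37 °C, 5% CO2 · Compound dosing – single-point 20 µM compound, 1% DMSO · Read-out – GFP/RFP fluorescence ratio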
Yeast UUG start = modulators of start codon recognition fidelity in yeast; S. cerevisiae UUG-firefly luciferase reporter, luminescence/redox ratio; activity score, % at 18.7 µM; 0.13% of 350,000 active;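 active means replicate mean at a twofold rise or more, about +100% in these data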;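 further: firefly luciferase made from a UUG start codon reports start codon fidelity; reporter light over untreated wells divided by growth signal over untreated wells; some hits fall short of that in this replicate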
MT1-MMP act inh RFP = also measured in MT1-MMP act inh; calls as there; RFP signal change, %; measured here: RFP expression control read;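 0 = vehicle wells; hits needed this value within 50% of zero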
* marks the source's active call; other numbers are inactive results; & = joins results of further samples.

canonical_smiles | MT1-MMP act inh | MT1-MMP act inh RFP | Yeast UUG start
Cc1nnc(SCC(=O)N(CC(C)C)C2CCS(=O)(=O)C2)n1N (stereo not given) | 3 | 2 | -15
Cc1ccc(-n2nnnc2SCC(=O)c2c(N)n(C3CC3)c(=O)[nH]c2=O)c(C)c1 | -6 | -1 | 2
Cc1ccc(C(=O)NCC(c2ccc(F)cc2)N2CCOCC2)cc1S(=O)(=O)N1CCOCC1 (stereo not given) | -7 | -5 | -9
O=C(NCCN1CCOCC1)c1ccccc1N1C(=O)[C@@H]2Cc3c([nH]c4ccccc34)C(c3cccc(Cl)c3)N2C1=O (stereo not given in full) | -2 | -1 | 1
Cn1cccc1CN1CCC[C@]2(N[C@H](c3ccccc3)[C@@H]3C(=O)N(Cc4ccccc4)C(=O)[C@@H]32)C1=O | 3 | 0 | -21
COc1ccc(C=NNC(=O)CCCC(=O)NN=Cc2ccc(OC)c(O)c2)cc1O | -2 | 5 | -10
O=C(Nc1ccc(S(=O)(=O)N2CCCC2)cc1)c1ccc(F)cc1 | 2 | 1 | -5
COc1ccccc1-c1nn(-c2ccccc2)cc1C(=O)NC1CC1 | -4 | -1 | -11
CC(=O)NC12CC3CC(C1)CC(C(=O)N1CCN(S(=O)(=O)c4ccccc4[N+](=O)[O-])CC1)(C3)C2 | 0 | 1 | -9
Cc1cc(OCCCC(=O)Nc2nnc(C3CC3)s2)ccc1Cl | 4 | 1 | -4
CC(C=NNC(=O)C(=O)NN=CC(C)=Cc1ccccc1)=Cc1ccccc1 | 4 | -1 | -13
CCOC1=C2CN(S(=O)(=O)c3ccc(C)cc3)[C@H](c3ccccc3)C[C@@H]2N(S(=O)(=O)c2ccc(C)cc2)[C@H](c2cccs2)C1 | 2 | -7 | -5
Cc1ccccc1S(=O)(=O)N(C)C[C@@H]1OCc2cnnn2CCCC(=O)N([C@@H](C)CO)C[C@@H]1C | 5 | 9 | -2&-11
COC(=O)c1cccc(NC(=O)c2cccc(N3C(=O)CCC3=O)c2)c1 | 0 | 4 | -13
CN(CC(=O)Nc1ccc(F)cc1)C(=O)C1CCN(C(=O)Nc2ccccc2)CC1 | 1 | 4 | -5
Cc1ccc(S(=O)(=O)N2CCCCC2)cc1NC(=O)c1cc(=O)[nH]c2ccccc12 | 1 | 1 | -9
COc1ccccc1C(=O)NCCC(=O)NCc1cccnc1 | 3 | 3 | -8
O=C(CCNC(=O)c1ccc(Cl)cc1)Nc1cccc(S(=O)(=O)N2CCCCC2)c1 | -2 | -2 | -6
CCNc1ccc(S(=O)(=O)N2CCOCC2)cc1NCC(=O)Nc1cccc(Br)c1 | -2 | -19 | -16
CS(=O)(=O)c1ccccc1C(=O)N1CCN(S(=O)(=O)c2ccc(C3CCCCC3)cc2)CC1 | 3 | -13 | -1
O=c1cc(-c2ccco2)oc2ccccc12 | -4 | 1 | -8
Cn1c(NCCN2CCCC2)nc2cc(-c3cccc(C(F)(F)F)c3)sc2c1=O | 0 | 1 | -7
CC[C@]12c3[nH]c4cc(CCC(=O)N(C)C)ccc4c3CCN1C(=O)[C@@H](CC(=O)NCCCOC)C[C@@H]2C(=O)N1CCN(C(=O)c2ccco2)CC1 | 5 | 4 | -17
Cc1ccccc1NC(=O)Cc1nc(COC(=O)Cc2cccc(C(F)(F)F)c2)cs1 | -1 | -2 | -4
Cc1cccc(C(=O)OCC(=O)Nc2ccc3c(c2)OCCO3)c1 | 3 | 4 | -16
O=S(=O)(c1ccc(Br)cc1F)N1CCC(O)CC1 | 3 | 4 | -13
CC1(C(=O)Nc2ccc3c(c2)OCO3)CCN1C(=O)Cc1cccc2ccccc12 (stereo not given) | 0 | -4 | 3
COc1cccc(NC(=O)CN(C)C(=O)/C=C/c2cn(-c3ccccc3)nc2-c2ccc(OC)c(OC)c2)c1 | -1 | -6 | -15
O=C1CCN(Cc2ccc(Cl)cc2Cl)C(=O)N1 | -2 | -1 | 4
CCOc1ccc(S(=O)(=O)N2CCN(C(=O)c3cc([N+](=O)[O-])ccc3N3CCOCC3)CC2)cc1 | -6 | -1 | -25
CN(C)CC(NC(=O)c1cccc(S(=O)(=O)Nc2ccc3c(c2)OCO3)c1)c1ccccc1 (stereo not given) | -1 | -1 | -21
O=C(c1ccc(NS(=O)(=O)c2ccc3[nH]c(=O)[nH]c3c2)cc1)N1CCN(c2ccccc2)CC1 | -1 | 1 | -8
C#CCN(C[C@@H]1[C@@H](OC(=O)NC2CCCC2)[C@@H](OC(=O)NC2CCCC2)CN(C(=O)OC(C)C)N1C(=O)OC(C)C)S(=O)(=O)c1ccc(C)cc1 | -17 | -21 | -1
COc1cccc(NC(=O)CN(C)C(=O)C(C)Sc2ccccc2)c1 (stereo not given) | -3 | -4 | 7
C=CCN1C(=O)C(=O)N(CC(=O)c2ccc3c(c2)CCCC3)C1=O | -2 | 1 | -13
O=C(CN1CCCCC1)NC(=O)Nc1ccccc1F | -2 | 3 | -18
O=C(O)C1CC(O)CN1S(=O)(=O)c1ccc2ccccc2c1 (stereo not given) | -3 | -5 | -2
Cc1ccc(S(=O)(=O)NCC(NCc2ccc(F)cc2)c2ccccc2)cc1 (stereo not given) | -5 | 0 | -7
CCOC(=O)N1CCN(C(=O)c2ccc(Cl)c(NC(=O)c3cccs3)c2)CC1 | -3 | -4 | 8
COc1c(O)cc(O)c2c(=O)cc(-c3ccccc3)oc12 | -10 | -4 | -17
O=C(NNC(=O)c1ccc2ccccc2c1)c1cccc(F)c1 | 5 | -2 | -7
C=Cc1ccc(CC2(C)C(=O)Nc3c(Cl)cccc32)cc1 (stereo not given) | 2 | -1 | -20
O=S1(=O)C[C@H](N2CCCC2)[C@@H](COCc2ccccc2)N1 | 4 | 4 | -4
Cc1ccc([C@H]2N[C@]3(CCCN(Cc4ccccc4)C3=O)[C@H]3C(=O)N(Cc4ccccc4)C(=O)[C@@H]23)cc1 | 0 | -3 | -3
COCCN1C(=O)CCC1(C)C(=O)NC1CCCC1 (stereo not given) | 1 | 3 | -15
Cc1cccc(S(=O)(=O)NC(=O)C2(C)CCN2C(=O)c2c(C)noc2C)c1 (stereo not given) | -1 | 4 | -19
N#Cc1ccccc1S(=O)(=O)N1CCN(C(=O)CN2CCCC2c2cccs2)CC1 (stereo not given) | -2 | -1 | -13
CN(Cc1cccs1)C(=O)c1cc(S(=O)(=O)N2CCOCC2)ccc1F | -4 | 1 | -10

(cont.)
Every second line gives: MT1-MMP act inh | MT1-MMP act inh RFP | Yeast UUG start
- CCCOc1ccc(C(=O)c2ccccc2C(=O)OC2CCOC2=O)cc1OCCC (stereo not given)
    2 | 5 | -2
- COc1ccc(OC)c(S(=O)(=O)N2CCCC(C(=O)NC3CC3)C2)c1 (stereo not given)
    1 | 1 | -27
- CCOc1ccc(N2CC(C(=O)NNC(=O)c3ccc(F)cc3)CC2=O)cc1 (stereo not given)
    0 | 4 | 8
- CCOC(=O)C1CCN(C(=O)c2cccc(S(=O)(=O)N(CC)c3ccccc3)c2)CC1
    -3 | 1 | -8
- O=C(CN1C(=O)C(=O)N(C2CCCC2)C1=O)Nc1ccc(OC(F)F)cc1
    -2 | -1 | -9
- COCCN(CC(=O)Nc1cccc(C)c1C)C(=O)c1cc2ccccc2cc1OC
    10 | 3 | -6
- Cc1cccc(NC(=O)CNC(=O)[C@H]2O[C@@H](n3ccc(=O)[nH]c3=O)[C@H](O)[C@@H]2O)c1C
    5 | 4 | 4
- COc1cc(C(=O)N2CCN(c3cccc(C)c3C)CC2)ccc1OCC(=O)N1CCOCC1
    -4 | -4 | 2
- O=c1c2ccccc2oc2ccccc12
    2 | 4 | -19
- Cn1c(=O)c2c(nc(OC3CCCCCC3)n2C)n(C)c1=O
    0 | 0 | -6
- CCCN1C(C)C(C(=O)OCC)=CN(Cc2cccc(I)c2)S1(=O)=O (stereo not given)
    -12 | -14 | -5
- COCCNC(=O)C1CCCN(C(=O)c2cc(-c3cccs3)oc2C)CC1 (stereo not given)
    5 | 3 | -23
- Oc1c(Cl)cc(CN2CCOCC2)c2cccnc12
    -2 | -18 | -41
- CCCn1c(SC(C)C(=O)NC2CCCC2)n[nH]c1=O (stereo not given)
    -8 | -2 | -13
- CC(C)=CCc1ccc(O)c(=O)cc1C(C)C
    10 | -12 | -12
- c1ccc2sc(N3CCCCC3)nc2c1
    3 | 0 | -27
- NC(=O)c1ccc(NC(=O)Cc2ccc(S(=O)(=O)N3CCCCC3)cc2)cc1
    1 | 3 | -9
- CC1(C(=O)NCCC(F)(F)F)Cc2c(-c3cccc(C(N)=O)c3)ccnc2O1 (stereo not given)
    -1 | 0 | -11
- CC(=O)N1CCN(S(=O)(=O)c2cccc(C(=O)OCC(=O)Nc3c(Cl)cccc3C(F)(F)F)c2)CC1
    13 | 2 | 58
- COc1ccc(OC)c(CN2CCN(C(=O)c3ccc(C)c(S(=O)(=O)Nc4ccccc4OC)c3)CC2)c1
    0 | 3 | -14
- CN1CCN(c2ccc3sc(-n4ccc5ccccc54)nc3c2)CC1
    2 | 1 | -35
- COc1cc(NC(=O)CSc2nc3[nH]ncc3c(=O)n2-c2ccccc2)cc(OC)c1OC
    1 | -3 | 8
- Cc1ccc(S(=O)(=O)N2CCN(C(=O)c3cc(S(=O)(=O)N4CCOCC4)ccc3Cl)CC2)c(C)c1
    -5 | -23 | 17
- O=C(CNC(=O)c1ccccc1F)OCc1nc2ccc(Cl)cc2n1CCO
    -1 | 1 | -14
- C[C@@H]1c2ccccc2N2C[C@H](Cc3ccc(C(=O)c4ccccc4)cc3)C[C@@H]12
    -2 | -5 | -17
- O=C1CCN(Cc2ccccc2)C=C1C(=O)c1ccccc1
    0 | 3 | -4
- COC(=O)c1cnc(NC(=O)C2(C)CCCN(C(C)=O)C2)s1 (stereo not given)
    3 | 6 | -4
- Cn1c2nc(=O)[nH]c(=O)c-2cc2ccccc21
    -1 | 3 | -11
- CC(C)C(=O)N1CCCC1(C)C(=O)Nc1ccc2c(c1)OCO2 (stereo not given)
    -3 | 0 | -13
- Cc1c(C#N)c2n(c1C)CCCC(=O)N2
    0 | 5 | -12

One compound at a time (already shown). Screens in order: MT1-MMP act inh | MT1-MMP act inh RFP | Yeast UUG start
`Cc1ccc(S(=O)(=O)N2CCN(C(=O)c3cc(S(=O)(=O)N4CCOCC4)ccc3Cl)CC2)c(C)c1` as listed: -5 | -23 | 17
`Cc1c(C#N)c2n(c1C)CCCC(=O)N2` as listed: 0 | 5 | -12
`Cn1c2nc(=O)[nH]c(=O)c-2cc2ccccc21` as listed: -1 | 3 | -11

Following part:
Every second line gives: MT1-MMP act inh | MT1-MMP act inh RFP | Yeast UUG start
- COc1ccc(OC)c(NC(=O)C2CC(=O)N(CCc3ccc(F)cc3)C2)c1 (stereo not given)
    1 | 4 | -19
- O=C(c1ccc(CNS(=O)(=O)c2ccc(F)cc2)cc1)N1CCCCCC1
    1 | -4 | -2
- CC1CC(C)(C)CC2(C1)NC(=O)N(CC(=O)Nc1cc(C(F)(F)F)ccc1N1CCCCC1)C2=O (stereo not given)
    -18 | -13 | -13
- CCCCNC1(C#N)CCN(Cc2ccccc2)CC1
    -3 | 2 | -10
- O=C1CN(N=Cc2ccco2)C(=O)N1
    5 | 4 | -9
- COC(=O)CCC(=O)OC
    -3 | 3 | -16
- COCCCNC(=O)Cn1cnc(C(=O)Nc2ccc(C)c(C)c2)n1
    8 | 7 | -22
- CCOC(=O)C1(C)CCN1C(=O)c1ccc(C)cc1 (stereo not given)
    0 | 0 | -3
- c1ccc2c(c1)nc1n2CCC1
    -3 | 1 | -6
- CC1=CCC[C@@H]2[C@]3(CC/C(=C/CO)CO)CO[C@@]2(C1)[C@@H](O)C[C@H]3C
    -4 | 0 | 0
- Cc1csc(SCC(=O)NC2CCCC2)n1
    -1 | 1 | -10
- COc1ccc(-c2nc3ccc(Br)cn3c2CC(C)(C)C)cc1OC
    1 | -2 | -9
- O=C(COC(=O)c1ccc(O)cc1)NCC1COc2ccccc2O1 (stereo not given)
    2 | 1 | -2
- CCOc1ccc(NS(=O)(=O)c2cccc(C(=O)N3CCN(C/C=C/c4ccccc4)CC3)c2)cc1
    -7 | -20 | -10
- CSCCC(NC(=O)COc1ccccc1)C(=O)OCCOc1ccc(C)cc1 (stereo not given)
    -6 | 1 | -9
- Nc1ncnc2c1ncn2[C@@H]1O[C@H](CNC(=O)[C@@H]2CCC(=O)N2)[C@@H](O)[C@H]1O
    0 | 4 | -30
- CCOC(=O)C1=C(COC(=O)CCOc2cc(C)ccc2C)NC(=O)NC1C (stereo not given)
    0 | 7 | 3
- CCOc1ccc(NC(=O)CN(C)C(=O)C2CC(=O)N(CCc3ccc(OC)c(OC)c3)C2)cc1OCC (stereo not given)
    0 | 0 | -38
- CCCOc1ccc(F)cc1-c1cc(C(=O)Nc2ccccc2)[nH]n1
    0 | -6 | -13
- Cc1c([N+](=O)[O-])cc(N2C(=O)C=CC2=O)cc1[N+](=O)[O-]
    4 | 2 | -36
- COc1ccc(-c2noc(CCC(=O)N3CCN(c4ccccc4C)CC3)n2)cc1
    -1 | -4 | 5
- CC(C(=O)N1CCc2ccccc21)N(C)CC(=O)Nc1cccc(F)c1 (stereo not given)
    -1 | 1 | 8
- COc1ccc(NC(=O)N(C)C[C@@H]2OCc3cn(nn3)CCCC(=O)N([C@@H](C)CO)C[C@H]2C)cc1
    -4 | 0 | -10&10
- CC(C)N1C(=O)C(=O)N(CC(=O)N2CCc3ccccc32)C1=O
    -3 | 3 | -24

Screening data: PubChem BioAssay, several laboratories

This is a subset, so the mix of outcomes need not match the whole.
